Bioassay records from PubChem.
Rango dissoc inh: inhibition of RanGTP-driven Rango-importin beta dissociation | Biochemical FRET Rango-importin beta, RanGTP-induced dissociation | Potency, µM (doses to about 46.1 µM), for inactives: at the top dose activity change, negative = inhibition | AID 540253 | 0.071% of 340,000 active | O95149+P62826; active means falling FRET ratio curve, often poorly fitted, with flat reads before Ran was added; inconclusive means other falling curves, or compound fluorescence or quenching; inactive means flat or rising ratio curve;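 note: potency is the fitted concentration of half-maximal effect; % of control where 0% means no effect; nearly all actives have a fitted effect of over 45% in size; -100% = wells without RanGTP and RCC1; the record marks most hits as doubtful in a second field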
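Two FRET readings bracket the reaction: one 5 min after compound meets Rango–importin beta, another 45 min after RanGTP-RCC1 (0.6 uM Ran, 0.2 uM RCC1, 2 mM GTP) is added. Only the second defines inhibition.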
miR-21 FLuc: raises the signal of a miR-21 reporter; 340,000 tested, under 10 active; Potency, µM (doses to about 38.3 µM), without a hit: at the highest dose reporter change, positive = more light; AID 2288; HeLa miR-21 FLuc reporter, luciferase, 48 h; active = well fitted rising curve with a large enough effect; inconclusive = small, poorly fitted or top-dose-only effect; inactive = no such curve, though single readings can be large or run the other way;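 note: % of control where 0% means no effect; miR-21 action dims this reporter so a rising signal means less miR-21 action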
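HeLa cells endogenously expressing miR-21, stably carrying CMV-driven firefly luciferase with a downstream miR-21 binding site, 2000 cells/well. Titrations up to approximately 40 uM, 48 hours; luciferase luminescence read.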
Rango-impB inh: prevents formation of the Rango-importin beta complex. Potency, µM (top dose mostly 92.2 µM), for inactives: top-dose inhibition of complex formation. Rango CFP/YFP FRET sensor + importin beta, 45 min. 0.031% of 340,000 active. AID 540263; active = rising FRET ratio curve, often small or poorly fitted; inconclusive = mostly compound fluorescence or quenching in the first reads; inactive = flat curves in all reads;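 note: potency is the fitted concentration of half-maximal effect; 0% = DMSO wells and 100% = buffer wells lacking importin beta; nearly all actives have a fitted effect of over 15% in size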
Target sequence (Q14974 whole entry, looked up): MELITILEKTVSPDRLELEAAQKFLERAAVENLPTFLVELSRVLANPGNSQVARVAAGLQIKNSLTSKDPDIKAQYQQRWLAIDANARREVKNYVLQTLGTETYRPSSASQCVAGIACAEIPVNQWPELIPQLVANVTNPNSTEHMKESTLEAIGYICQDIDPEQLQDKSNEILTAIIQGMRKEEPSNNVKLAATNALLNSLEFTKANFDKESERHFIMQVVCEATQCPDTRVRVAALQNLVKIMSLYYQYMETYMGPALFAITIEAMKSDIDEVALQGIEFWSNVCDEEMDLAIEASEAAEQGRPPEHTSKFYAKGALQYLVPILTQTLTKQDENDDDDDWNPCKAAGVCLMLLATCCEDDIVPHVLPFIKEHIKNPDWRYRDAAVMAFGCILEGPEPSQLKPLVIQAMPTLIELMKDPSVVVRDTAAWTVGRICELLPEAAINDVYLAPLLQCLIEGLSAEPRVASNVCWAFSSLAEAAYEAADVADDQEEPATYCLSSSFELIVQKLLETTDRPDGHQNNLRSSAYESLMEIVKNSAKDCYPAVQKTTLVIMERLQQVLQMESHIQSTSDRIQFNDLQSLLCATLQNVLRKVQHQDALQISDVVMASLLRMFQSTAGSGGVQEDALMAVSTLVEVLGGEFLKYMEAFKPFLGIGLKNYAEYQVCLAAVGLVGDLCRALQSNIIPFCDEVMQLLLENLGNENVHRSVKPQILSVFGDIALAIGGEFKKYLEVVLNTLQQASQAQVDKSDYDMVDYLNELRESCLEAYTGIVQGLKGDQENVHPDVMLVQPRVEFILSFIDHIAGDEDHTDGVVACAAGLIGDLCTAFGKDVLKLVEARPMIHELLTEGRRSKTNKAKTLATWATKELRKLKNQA
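FRET biosensor Rango (snurportin 1 IBB between N-terminal EYFP and C-terminal Cerulean), 50 nM in PBS/1 mM DTT/0.02% Tween-20/0.1% BSA, preincubated 5 min RT with compound; 0.125 microM importin beta added, 45 min RT, CFP/YFP FRET ratio read.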
GLA inh pH 4.5: blocks human alpha-galactosidase A at pH 4.5. P06280. purified enzyme, 4-MU-alpha-Gal fluorescence, pH 4.5. activity change, negative = inhibition, % at 105 µM. 230,000 tested, under 10 active; inconclusive = small, poorly fitted or top-dose-only inhibition, or a rising curve; inactive = flat fitted curve, though single readings scatter; no compound was filed as active;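 note: 0% = full activity with enzyme and -100% = basal without enzyme; dose as in the result columns while the protocol names 77 µM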
The depositor's hits bear a star; ? = inconclusive; nt = no result given; & = joins results of further samples.

GLA inh pH 4.5	Rango-impB inh	miR-21 FLuc	Rango dissoc inh	Compound
nt	-1.0%	nt	14%	CCCN(C(=O)c1cc(Cl)nc2ccccc12)c1c(N)n(Cc2ccccc2)c(=O)[nH]c1=O
8	-0.7%	8%	-7%	O=S(=O)(NC1c2cccc3cccc(c23)C1N1CCN(CCO)CC1)c1ccccc1 (stereo not given)
8	-3.8%	1%	-5%	CCOC(=O)C(C)Sc1nc(-c2cccs2)ccc1C#N (stereo not given)
5	-5.1%	-40%	-15%	O/N=C/c1ccc2ccccc2n1
-9	-2.0%	-3%	25%	O=C(CCN1C(=O)c2ccccc2C1=O)Nc1cccc(F)c1
0	2.9%	-1%	-5%	CCOC(=O)CSC1=C(C#N)C(c2ccccc2OCC)C(C(=O)OCC)C(=O)N1 (stereo not given)
3	-5.6%	-13%	-3%	O=C(c1ccc2c(c1)OCO2)N1CCN=C1SCc1ccccc1
nt	-2.2%	-1%	-2%	O=C(Cc1ccccc1)N1CCC2(CC1)NCCc1[nH]cnc12
nt	-1.3%	2%	1%	Cc1cc(=O)oc2cc(OCC(=O)NCC3CCC(C(=O)O)CC3)ccc12 (stereo not given)
nt	?	0%	13%	CCOC(=O)C(C(=O)OCC)c1c([N+](=O)[O-])c(=O)n2c3c(cccc13)CCC2
2	1.9%	-12%	19%	COc1ccc(CNC(=O)c2cnc(C)cn2)c(OC)c1
-7	-1.9%	-7%	10%	CC1CCc2c(sc(NC(=O)CSc3nc4c(c(C(F)(F)F)n3)CCc3ccccc3-4)c2C(N)=O)C1 (stereo not given)

(next part)
GLA inh pH 4.5	Rango-impB inh	miR-21 FLuc	Rango dissoc inh	Compound
-2	0.4%	-5%	3%	COc1ccc(-c2nc(C)ncc2-c2csc(C)n2)c(O)c1
7	-2.3%	-32%	26%	C=CCOc1ccc(CNc2nccs2)cc1OCC
-1	-1.8%	-7%	-6%	C/C(=N/NC(=O)CNC(=O)COc1ccccc1)c1ccco1
nt	-1.6%	nt	6%	COc1ccc(-c2cc3ccccc3oc2=O)cc1
0	3.6%	0%	-8%	CC1(C)CC(OC(=O)c2ccccc2)CC(C)(C)N1
nt	3.1%	nt	-9%	COc1ccc(-c2nc(SCC(=O)Nc3cccc(S(N)(=O)=O)c3)n[nH]2)cc1
-4	-0.4%	-1%	7%	COc1ccc(C(=O)Nc2cc(C)on2)cc1[N+](=O)[O-]
nt	1.6%	-25%	1%	Cc1ccn2c(NC(=O)c3ccccc3)c(-c3ccccc3)nc2c1
nt	2.9%	?	7%	O=C(c1ccc(Cl)cc1)C(CN1CCCC1)c1ccccc1 (stereo not given)
3	3.4%	-20%	5%	Cc1ccc(NC2c3ccccc3C(=O)N2c2cccnc2)cc1 (stereo not given)
3	-0.5%	-3%	-7%	O=C(NCc1ccc2c(c1)OCO2)c1cnc2ccccn2c1=O
nt	-2.5%	nt	8%	O=C1CCN(Cc2ccccc2)C=C1c1cccc(O)c1

(list continues)
GLA inh pH 4.5	Rango-impB inh	miR-21 FLuc	Rango dissoc inh	Compound
nt	-4.3%	-2%	11%	O=C(CCn1c(=O)oc2ccc(Cl)cc21)N1CCN(c2ccccc2)CC1
-2	3.4%	-9%	1%	CS(=O)(=O)c1ccc2nc(NC(NC(=O)c3ccco3)(C(F)(F)F)C(F)(F)F)sc2c1
0	0.6%	0%	0%	COc1ccccc1OCCC(=O)OCC(=O)NC(=O)NC(C)(C)C
nt	-1.9%	-64%	1%	CC(=O)c1c(C)[nH]c(C(=O)Nc2ccc(Cl)cc2F)c1C
nt	1.2%	-3%&-4%	9%	COc1ccc(S(=O)(=O)Nc2c(C)n(C)n(-c3ccccc3)c2=O)cc1Br
-6	-1.0%	-6%	-2%	CCOc1ccc(NC(=O)N(CCN(C)C)C(C)c2ccncc2)cc1 (stereo not given)
21	nt	1%	nt	Fc1cccc(-n2c(-c3cccs3)nc3nc4ccccc4nc32)c1
-5	2.9%	-6%	1%	Cc1cc(-c2ccccc2)nc2c(Br)c(=O)[nH]n12
-1	2.0%	-6%	-7%	O=C(Nc1cccc(S(=O)(=O)N2CCCCC2)c1)c1ccc2ccccc2n1
nt	0.8%	-4%	2%	CCOc1ccc(N(CC(=O)Nc2ccccc2F)S(=O)(=O)c2c(C)[nH]c(=O)[nH]c2=O)cc1
nt	5.4%	nt	-4%	CCCCn1c(N)c(N(CC(C)C)C(=O)CC2OC(=O)c3ccccc32)c(=O)[nH]c1=O (stereo not given)
-12	-3.1%	-25%	-17%	CCCOc1nc(N)c(C#N)c(-c2ccccc2F)c1C#N

The results go on:
GLA inh pH 4.5	Rango-impB inh	miR-21 FLuc	Rango dissoc inh	Compound
2	-1.2%	-9%	0%	Cc1[nH]c2ccccc2c1CCO
nt	-0.1%	-8%	-9%	COCCC(=O)N1CCC(Oc2ccc(C(=O)NC3CCCCC3)cc2)CC1
nt	0.1%	-27%	9%	CCN(CC)CCCNC(=O)c1cc2c(-c3cccc(OC)c3)nn(C)c2s1
4	-1.9%	-3%	-7%	COc1ccc(-c2nnnn2C)cc1S(=O)(=O)NCCc1ccccc1
-11	-1.5%	-10%	1%	Cc1c(NC(=S)N/N=C/C=C/c2ccc([N+](=O)[O-])cc2)c(=O)n(-c2ccccc2)n1C
5	?	-2%	1%	O=C(NCc1ccc(F)cc1)c1cccc2c1C(=O)N(Cc1cccnc1)C2
nt	-4.7%	5%	1%	CC(NC(=O)Nc1ccc(Cl)cc1)c1ccc2c(c1)OCO2 (stereo not given)
2	-0.6%	-62%	0%	Cc1cccc(-c2noc(-c3ccc(Cl)cc3[N+](=O)[O-])n2)c1
nt	1.7%	nt	-10%	O=C(NC(=S)NN1CCOCC1)c1cc(Br)ccc1Cl
nt	-0.8%	nt	-5%	COc1cccc(CNC(=O)CN2c3cccc4cccc(c34)S2(=O)=O)c1
nt	?	-30%	-3%	Cc1ccccc1S(=O)(=O)Nc1ncnc2ccccc12
4	-1.2%	14%	1%	ClCc1ncc(-c2ccc(Cl)cc2)o1

Carrying on.
GLA inh pH 4.5	Rango-impB inh	miR-21 FLuc	Rango dissoc inh	Compound
nt	-2.9%	nt	?	CC(=O)c1ccc(-c2ccc(C(=O)Nc3nc(C)c(C(C)=O)s3)o2)cc1
2	0.6%	11%	1%	CCN(CC)CCNC(=O)c1ccc2c(=O)n(C3CCCC3)c(=S)[nH]c2c1
nt	-1.2%	nt	18%	CC(=O)c1sc(NC(=O)CCS(=O)(=O)c2ccc(Cl)cc2)nc1C
2	-0.7%	1%	0%	CCCCCN(C(=O)NC(=O)Nc1nncs1)S(C)(=O)=O
nt	?	nt	-16%	COc1ccc(NS(=O)(=O)c2cccc(C(=O)NN=Cc3ccc(OC)cc3OC)c2)cc1
-7	-2.2%	8%	-11%	O=C(Nc1ccccc1C(=O)NCc1ccccc1)c1ccccc1
0	-0.3%	-4%	3%	CCN(CC)CCNC(=O)C1CCN(S(=O)(=O)N2CCCCC2)CC1
-3	2.6%	-33%	-19%	COc1ccc(-c2csc(NCc3ccco3)n2)cc1
nt	-5.0%	nt	-13%	Cc1ccc(OC(C)C(=O)N2CCN(c3ccccn3)CC2)cc1 (stereo not given)
-8	2.9%	-4%	-11%	CCCCC(=O)N(CCOC)c1nnc(-c2ccc(OC)cc2)s1
1	-2.3%	0%	23%	CCCC(C)C(=O)Nc1nnc(C)s1 (stereo not given)
-16	-0.2%	-13%	11%	COc1ccc(C)cc1NC(=O)C(OC(=O)CNC(=O)c1ccc(Oc2ccccc2)cc1)c1ccccc1 (stereo not given)

3 of these compounds, reformatted.
Below each SMILES: GLA inh pH 4.5 | Rango-impB inh | miR-21 FLuc | Rango dissoc inh
CCCCC(=O)N(CCOC)c1nnc(-c2ccc(OC)cc2)s1
→ -8 | 2.9% | -4% | -11%
CC(=O)c1ccc(-c2ccc(C(=O)Nc3nc(C)c(C(C)=O)s3)o2)cc1
→ nt | -2.9% | nt | ?
COc1ccc(-c2csc(NCc3ccco3)n2)cc1
→ -3 | 2.6% | -33% | -19%

Continued.
GLA inh pH 4.5	Rango-impB inh	miR-21 FLuc	Rango dissoc inh	Compound
nt	-2.6%	?	9%	Cc1cc(-c2ccc(C)c(S(=O)(=O)NCCCN3CCN(c4ccccc4F)CC3)c2)on1
2	-0.3%	-32%	0%	COc1ccc(-c2cc(C(=O)Nc3ccccc3)on2)cc1
nt	5.8%	-4%	-10%	O=C(NCc1cccnc1)Nc1ccc(Br)cc1Cl
nt	-0.4%	-35%	-6%	Cc1ccc(NC(=O)CNCc2cccs2)cc1Br
0	?	-9%	-28%	COCCOC(=O)C1=C(C)NC(C)=C(C(=O)OCCOC)C1/C=C/c1ccccc1OC
nt	2.5%	-4%	-15%	Cc1c(S(=O)(=O)NC(C)c2ccccc2)c(=O)n(C)c(=O)n1C (stereo not given)
nt	-1.3%	-4%	12%	CC(=O)Nc1ccc(NC(=O)CCOc2cc(C)ccc2C)cc1
nt	1.4%	14%	0%	CCOC(=O)c1sc(NC(=O)CC(C)c2ccccc2)nc1C (stereo not given)
nt	-4.1%	0%	20%	C=CCNC(=O)N1CCC(n2nccc2NC(=O)CCc2ccccc2)CC1
nt	-1.6%	0%	-3%	COc1ccc(CNCc2ccc(C(F)(F)F)cc2)cc1OC
nt	1.7%	-4%	0%	COc1ccc(Br)cc1CN1CCN(S(=O)(=O)Cc2ccccc2)CC1
4	5.0%	-14%	-13%	CCc1nc(NCC2CCCO2)c(C#N)c2c1COC(C)(C)C2 (stereo not given)

Whole records, looked up by structure. Values in the order: GLA inh pH 4.5 | Rango-impB inh | miR-21 FLuc | Rango dissoc inh
COc1ccc(CNCc2ccc(C(F)(F)F)cc2)cc1OC in the list: nt | -1.6% | 0% | -3%
CC(=O)Nc1ccc(NC(=O)CCOc2cc(C)ccc2C)cc1 in the list: nt | -1.3% | -4% | 12%
Cc1ccc(NC(=O)CNCc2cccs2)cc1Br in the list: nt | -0.4% | -35% | -6%

Other structures:
GLA inh pH 4.5	Rango-impB inh	miR-21 FLuc	Rango dissoc inh	Compound
3	nt	-3%	nt	CCCn1c2c(c(O)c(C(=O)Nc3nc(C)cs3)c1=O)CCCC2
5	-7.6%	-5%	-13%	Cc1ccnc(NS(=O)(=O)c2ccc(NC(=O)C3CCCO3)cc2)n1 (stereo not given)
-3	?	-15%	-19%	N#CCc1c(C#N)c(N)nc(N2CCN(Cc3ccc4c(c3)OCO4)CC2)c1C#N
1	0.5%	0%	14%	COC(=O)/C(=N\Nc1ccccc1)Sc1nnc(-c2ccc(OC)cc2)n1C
nt	6.7%	-3%	0%	COc1cccc(NC(=O)CCC2CCN(C(=O)c3scnc3C)CC2)c1
6	-0.2%	-3%	4%	C1CCc2c(nnc3c2-c2nonc2CC3)C1
9	0.9%	27%	-12%	CCCCCc1cc(O)c2c(C)cc(=O)oc2c1
nt	2.9%	-9%	14%	CC(Oc1ccccc1)C(=O)NC1CCCCCCC1 (stereo not given)
5	1.6%	-16%	-2%	O=C1CCCN1CCCNC(=S)Nc1cccc2ccccc12
-1	1.1%	-5%	11%	O=C(NCc1cccnc1)C1CC(=O)N(CCc2ccccc2)C1 (stereo not given)
nt	-0.1%	nt	-4%	CC(=O)Nc1cccc(N)c1
-7	-0.4%	-2%	-21%	O=C(N/N=C\c1ccccn1)c1ccccc1O

Going on with the list.
GLA inh pH 4.5	Rango-impB inh	miR-21 FLuc	Rango dissoc inh	Compound
-2	-4.1%	-11%	1%	Cc1csc(NC(=O)CSc2nnc(NC(=O)COc3ccccc3)s2)n1
nt	?	nt	1%	CN(C)C(=S)N=c1ssc(=S)n1Cc1ccco1
nt	0.2%	nt	0%	Cn1nc(C(=O)OCC(=O)c2ccc(Br)cc2)c2ccccc2c1=O
nt	-1.2%	nt	8%	CCc1ccc(OCCNc2cc(N3CCNC(C)C3)ccc2[N+](=O)[O-])cc1 (stereo not given)
1	-0.4%	-3%	4%	Cc1nnc(NC(=O)CSc2ccc(-c3cccnc3)nn2)s1
-4	5.0%	3%	9%	Cc1nc(-c2ccncc2)nc(NCCNc2ccc(C(F)(F)F)cn2)c1Cl
nt	-3.0%	-1%	-2%	Cc1ccc(NC(=O)CCN2CCN(C)CC2)cc1
-1	4.2%	8%	1%	Cc1ccccc1-n1c(-c2ccc(Cl)cc2)cnc1SCC(=O)NC1CCS(=O)(=O)C1 (stereo not given)
1	-3.8%	-4%	-3%	Cc1ccc(S(=O)(=O)NCCc2cccs2)cc1

These rows are one share of the data. The share of hits here may be higher or lower than overall.
